# TRPML1 inh = inhibitors of human TRPML1 channel. TRPML1-inducible cells, Ca2+ dye fluorescence, FDSS; hits give low values; inhibition of EC80 agonist-evoked calcium signal. activity change, negative = inhibition, % (test concentration not listed). Q9GZU1. 390,000 compounds, 0.02% hits. AID 624415; in the data active means activity change below about -50%; inconclusive means about -30% to -50%; inactive means above about -30%;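 also: stimulus is agonist 54-4 at its EC80 concentration; % is scaled to controls: 0 for no effect and ±100 for the full control effect; compound concentration not given in the record; the text of the record puts the active cut at -80%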
# Target sequence (Q9GZU1 whole entry, looked up): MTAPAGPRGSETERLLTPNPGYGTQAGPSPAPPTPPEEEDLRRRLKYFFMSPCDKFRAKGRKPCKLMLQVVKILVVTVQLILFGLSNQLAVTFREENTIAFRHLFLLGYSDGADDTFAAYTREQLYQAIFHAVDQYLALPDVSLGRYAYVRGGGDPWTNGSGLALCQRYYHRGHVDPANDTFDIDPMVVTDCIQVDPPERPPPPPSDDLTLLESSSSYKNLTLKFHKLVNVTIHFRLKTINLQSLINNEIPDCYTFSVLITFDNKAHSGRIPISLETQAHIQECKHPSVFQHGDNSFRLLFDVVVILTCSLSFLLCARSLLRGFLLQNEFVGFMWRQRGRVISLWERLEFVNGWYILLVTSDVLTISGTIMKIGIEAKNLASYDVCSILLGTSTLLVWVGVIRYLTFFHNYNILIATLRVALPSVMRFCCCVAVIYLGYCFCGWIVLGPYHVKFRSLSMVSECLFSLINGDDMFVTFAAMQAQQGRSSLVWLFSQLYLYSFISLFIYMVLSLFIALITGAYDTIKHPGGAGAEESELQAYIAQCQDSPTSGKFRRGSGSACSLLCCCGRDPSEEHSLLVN
#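 Calcium fluorescence in TRPML1-DL cells induced overnight with Tet: a 110 s read after compound pin addition, then a 110 s antagonist read after challenge with 54-4 at 4 uM final (EC80).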
# Six1-Eya2 inh = blocks human Six1 binding to Eya2; Q15475+O00167; AlphaScreen GST-Six1/His-Eya2 binding, biochemical; hits give low values; control for the full effect not named in the record; activity change, % (concentration not given with the values); 360,000 compounds, 0.56% hits; AID 651725; in the data active = activity change below about -65%; inconclusive = about -30% to -65%; inactive = above about -30%; also: % is scaled to controls: 0 for no effect and ±100 for the full control effect
#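 AlphaScreen luminescence read after one hour at 37 °C in darkness. Pin-transferred compounds met GST-Six1 and His-Eya2 protein (5X stock 250 nM/500 nM) plus glutathione donor and Ni-chelate acceptor beads (5X, 50 ug/mL).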
# TRPV1 potentiator = human TRPV1 potentiation; 320,000 compounds, 0.02% hits; potentiation, % at 8.33 µM; Q8NER1; TRPV1-expressing cells, Fluo-8 calcium influx, capsaicin EC20 potentiation; host cell line not named in the record; control for the full effect not named in the record; AID 540277; active means potentiation above 80%; inconclusive means 30% to 80%; inactive means below 30%; also: 0% is about no effect
#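 TRPV1-expressing cells were cultured overnight at 35.5C and loaded with Fluo-8 calcium dye for 40 to 90 min at room temperature. After a 10 s baseline, compound was added and calcium influx was read kinetically for 3 min (ex 480/em 520 nm).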
# TRPML1 ag = agonists of human TRPML1 channel; TRPML1-expressing cells, Ca2+ dye fluorescence, FDSS; host cell line not named in the record; reference of the full effect not given here; 410,000 compounds, 0.12% hits; activation, % (concentration not given with the values); in the data active = activation above about 50%; inconclusive = about 30% to 50%; inactive = below about 30%; also: 0% is about no effect; the text of the record puts the active cut at 80%
#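 In this qHTS format, compounds were pin-transferred onto Ca8-dye-loaded TRPML1-DL cells induced with Tet overnight, and intracellular Ca2+ fluorescence was recorded kinetically for 110 s after a 10 s baseline. A subsequent 4uM final 54-4 (EC80) addition followed by a second 110 s read served as the antagonist phase.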
# CtBP-E1A blk = blocks the CtBP interaction with E1A | 340,000 compounds, 0.49% hits | AID 651724 | activity change, % (concentration not given with the values) | AlphaScreen GST-E1A/His-CtBP binding, 1536-well; hits give low values; control for the full effect not named in the record; in the data active means activity change below about -65%; inconclusive means about -30% to -65%; inactive means above about -30%; also: % is scaled to controls: 0 for no effect and ±100 for the full control effect
#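 AlphaScreen with 125 nM GST-E1A and 125 nM His-CtBP (5X stocks) in Tris pH 8.0, 300 mM NaCl, BSA, Tween 20, TCEP. Compounds preincubated 2 h at 37 deg C, then glutathione donor/nickel acceptor beads added for 1 h at 37 deg C in dark.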
# D2 potentiator = human D2 receptor positive allosteric modulation | potentiation, % (test concentration not listed) | DiscoveRx D2 beta-arrestin cells, luminescence, 90 min; 100% = 57 uM dopamine signal | 360,000 compounds, 0.23% hits | P14416; active = potentiation of 50% or more; inconclusive = 30% to 50%; inactive = 30% or less;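 also: compound concentration not given in the record; tested on top of an EC20 dose of dopamine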
# Target sequence (P14416 whole entry, looked up): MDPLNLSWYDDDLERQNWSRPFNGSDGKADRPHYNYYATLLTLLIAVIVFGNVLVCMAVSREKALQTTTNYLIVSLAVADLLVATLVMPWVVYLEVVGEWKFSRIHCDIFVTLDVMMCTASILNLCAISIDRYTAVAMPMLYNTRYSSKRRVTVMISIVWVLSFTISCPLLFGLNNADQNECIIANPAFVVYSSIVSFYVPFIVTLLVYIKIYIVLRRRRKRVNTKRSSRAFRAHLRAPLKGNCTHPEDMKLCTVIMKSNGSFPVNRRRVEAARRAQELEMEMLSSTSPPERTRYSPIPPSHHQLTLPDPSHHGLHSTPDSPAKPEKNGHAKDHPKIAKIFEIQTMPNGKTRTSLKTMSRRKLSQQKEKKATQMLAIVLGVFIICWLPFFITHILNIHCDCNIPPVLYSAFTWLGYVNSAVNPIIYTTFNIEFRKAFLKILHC
#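 D2 cells co-treated with compound plus 50 nM dopamine (EC20) for 90 min at 37 deg C to detect potentiation. Beta-arrestin recruitment was read as enzyme-fragment luminescence after 1 h at ambient temperature. Full response was set by 57 uM dopamine.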
# * = called active by the depositor; ? = inconclusive; . = not tested or not shown. Compounds were not picked by outcome; overall some 0.95% were active at least once.
Compound	TRPML1 inh	Six1-Eya2 inh	TRPV1 potentiator	TRPML1 ag	CtBP-E1A blk	D2 potentiator
CC(=O)c1cccc(NC(=O)COC(=O)c2ccccn2)c1	36.6	-10.5	18.4	0.3	-8.8	-6.9
COC(=O)C1=NN(c2cccc(C)c2)C2C(=O)N(c3ccccc3OC)C(=O)C12 (configuration not stated)	15.8	1.3	-6.5	1.4	3.8	-6.1
Cc1nc(SCc2ccccc2C)n[nH]1	10.5	9.2	-7.3	-0.6	6.5	-4.0
COc1nc(N)nc2c1ncn2C1OC(CO)CC1O (configuration not stated)	-13.6	6.9	.	0.1	11.6	11.3
O=C(COC(=O)c1ccc(Br)o1)NCc1ccc2c(c1)OCO2	7.3	0.2	.	2.7	-9.5	-7.8
N/C(=N\OC(=O)c1ccccc1Br)c1cccc([N+](=O)[O-])c1	.	1.3	3.9	.	1.8	?
COc1ccc(Cl)cc1NC(=O)c1c(-c2ccccc2)noc1C	1.5	4.8	-6.7	-0.4	-1.4	-17.5
CC(C)C[C@@H](C(=O)N[C@@H](C(=O)O)c1ccccc1)N1C(=O)N2CCc3c([nH]c4ccccc34)[C@@]2(C)C1=O	.	-13.7	-21.8	.	-1.4	7.2
CN([C@@H](Cc1ccc(OS(=O)(=O)c2cccc3cnccc23)cc1)C(=O)N1CCN(c2ccccc2)CC1)S(=O)(=O)c1cccc2cnccc12	-1.1	-1.6	0.0	-0.1	-12.6	11.6
Cc1ccc(N2C(=O)[C@@H]3[C@H](C2=O)C2c4ccccc4C=CN2[C@@H]3C(=O)c2ccco2)c(C)c1 (some centres not stated)	-5.6	7.8	7.1	1.0	-7.0	-8.3
COc1ccc(OC)c(NC(=S)NC(=O)c2ccc(Br)o2)c1	-7.6	6.8	-11.9	1.3	-6.7	-12.0
O=C(Cc1ccccc1)Nc1nnc(SCC(=O)NC2CCCC2)s1	-9.6	8.2	-0.1	-1.2	-6.4	6.7
Cc1cc(C)cc(N(CCC#N)C(=O)COC(=O)C2CCN(c3ccc(C(F)(F)F)cn3)CC2)c1	17.0	10.2	-9.3	1.1	-18.5	0.5
C=CCn1c(=O)[nH]c2cc(C(=O)N3CC=C(c4ccccc4)CC3)ccc2c1=O	28.7	5.0	?	1.3	-7.3	10.9
Cc1c(NC2=NC3(CCCCC3)Cc3ccccc32)c(=O)n(-c2ccccc2)n1C	-2.9	4.7	-43.7	0.6	-3.6	-6.2
O=C(NCCCc1ccncc1)C1CCC(=O)N(Cc2ccc(Cl)cc2)C1 (configuration not stated)	1.5	5.1	24.1	0.7	-17.2	-3.8
Cc1nn(CC2CC2)c(=O)n1N(C)c1ncc(C(F)(F)F)cc1Cl	24.0	8.7	-7.7	1.7	-0.8	1.1
O=C1c2cccc3cccc(c23)C(=O)N1c1cccnc1	13.4	4.5	3.8	0.4	4.6	-5.7
Cc1ccc(C)c(N2CCN(C(=O)Cn3ncn4cccc4c3=O)CC2)c1	14.5	-0.3	-20.3	0.3	-3.6	-0.6
C/C=C/C(=O)N1CC2(CC(c3cccc(NC(=O)COc4ccc(Cl)cc4)c3)=NO2)C[C@@H]1C(N)=O (some centres not stated)	-14.3	1.9	7.7	-0.1	3.9	-1.9

# New compounds follow:
Compound	TRPML1 inh	Six1-Eya2 inh	TRPV1 potentiator	TRPML1 ag	CtBP-E1A blk	D2 potentiator
CCCC(=O)N1CC(=O)Nc2ccc(C)cc2C1c1ccccc1 (configuration not stated)	3.0	35.9	?	-1.4	-1.2	-6.4
CCC(=O)NC(Nc1c(C)n(C)n(-c2ccccc2)c1=O)C(Cl)(Cl)Cl (configuration not stated)	13.3	-8.0	3.2	0.5	.	-3.2
O=C(Nc1nnc(C(F)(F)F)s1)c1ccc(Br)s1	-1.5	6.5	2.5	0.0	-16.0	-6.5
Nc1nc(NCCN2CCOCC2)nc(NCc2ccccc2)c1[N+](=O)[O-]	-1.0	0.2	?	3.1	-12.3	-11.4
Cc1nc(-c2ccc(F)cc2)c(CC(=O)N(C)CC(=O)Nc2ccccc2Br)s1	10.7	7.9	?	-0.4	1.5	-17.0
Cc1cc(F)ccc1C(O)c1ncc(-c2ccc(Oc3ccccc3)cc2)[nH]1 (configuration not stated)	.	?	.	-0.4	?	-8.0
O=C(Nc1nnc(C23CC4CC(CC(C4)C2)C3)s1)c1ccco1	2.6	0.5	8.6	0.0	-1.6	-24.1
CC(=O)Nc1ccc(S(=O)(=O)N(C)CC(=O)N/N=C/c2ccc(C(=O)O)cc2)cc1	.	-2.5	-1.5	.	.	27.9
CCN(CC)S(=O)(=O)c1ccc(N2CCOCC2)c(NC(=O)c2cc3ccccc3oc2=O)c1	-4.5	-18.1	-1.5	-1.4	0.0	-7.8
Cc1ccc(S(=O)(=O)N2C3C=CC(C3)C2C(=O)O)cc1 (configuration not stated)	-3.8	7.3	1.6	-0.2	8.9	-6.0
CNC(=O)CN(c1ccc(Oc2ccccc2)cc1)S(=O)(=O)c1ccc(C)cc1	3.0	-0.1	-0.7	2.1	8.0	-1.1
CCOc1ccc(CCNC(=O)c2cc3ccccn3n2)cc1OCC	-3.4	-1.2	-2.8	-0.1	1.0	-3.6
NN1C(=O)/C(=C\c2ccco2)SC1=S	-5.0	-16.0	.	-0.2	-15.5	-4.4
O=C(c1cccs1)N(Cc1ccc(Cl)cc1)C1CCS(=O)(=O)C1 (configuration not stated)	0.5	1.0	6.8	-0.4	-4.1	-13.6
O=C(c1ccc(-c2ccc([N+](=O)[O-])cc2)o1)N1CCCCC1	18.5	-6.1	3.4	0.3	-9.7	2.1
COc1ccc(C(=O)C2CCCN(Cc3c[nH]c4ccccc34)C2)c(OC)c1 (configuration not stated)	6.6	-5.1	8.0	3.8	-17.2	-6.3
Cc1cc2ccccc2c(=O)n1CC(=O)NCC(=O)N1CCCC(C)C1 (configuration not stated)	12.8	5.7	21.1	1.3	2.4	-10.7
COc1ccc(NC(=O)C2c3ccccc3OCC(=O)N2Cc2cccnc2)cc1 (configuration not stated)	.	1.5	.	-0.1	5.7	.
O=C1C=CC2C(c3ccc4c(c3)OCO4)CC1N2Cc1ccccc1 (configuration not stated)	2.9	2.6	6.4	-0.2	-7.3	-9.3
Cc1cccc(C)c1-n1nnnc1-c1nc2cc(Br)ccc2[nH]c1=O	.	1.0	.	-0.9	-0.7	.

# Record cards, from the list above. Values in the order: TRPML1 inh | Six1-Eya2 inh | TRPV1 potentiator | TRPML1 ag | CtBP-E1A blk | D2 potentiator
# Shown for O=C(c1ccc(-c2ccc([N+](=O)[O-])cc2)o1)N1CCCCC1 = 18.5 | -6.1 | 3.4 | 0.3 | -9.7 | 2.1
# Shown for Cc1cc2ccccc2c(=O)n1CC(=O)NCC(=O)N1CCCC(C)C1 (configuration not stated) = 12.8 | 5.7 | 21.1 | 1.3 | 2.4 | -10.7
# Shown for Cc1cccc(C)c1-n1nnnc1-c1nc2cc(Br)ccc2[nH]c1=O = . | 1.0 | . | -0.9 | -0.7 | .

# Later entries:
Compound	TRPML1 inh	Six1-Eya2 inh	TRPV1 potentiator	TRPML1 ag	CtBP-E1A blk	D2 potentiator
CCOC(=O)C1=C(CCc2ccccc2)NC(=O)NC1c1cccc([N+](=O)[O-])c1 (configuration not stated)	-10.7	0.2	-7.1	-1.0	3.8	-17.4
CC(C)n1nnnc1SCC(=O)N1CCN(C(=O)c2ccco2)CC1	-20.3	20.7	2.5	0.2	2.9	-14.4
COc1ccc(NC(=O)CO/N=C2/CCCc3nonc32)c(OC)c1	39.9	-13.2	21.6	-0.1	-14.0	-2.8
CN(Cc1cnn(C)c1)S(=O)(=O)c1cccc([N+](=O)[O-])c1	12.6	14.2	0.9	0.0	-5.9	-17.8
Cc1ccc(S(=O)(=O)NCC(=O)OCC(=O)Nc2ccc(C)c(S(=O)(=O)N3CCOCC3)c2)cc1	-19.2	-1.2	.	1.8	2.9	0.7
NCCc1nnc(SCc2ccccc2F)o1	-5.0	3.9	-4.4	0.2	6.3	1.8
Cc1cc(N)n(-c2ncnc3scc(-c4ccc(Cl)cc4)c23)n1	0.3	-0.1	-9.8	-1.0	-2.0	-0.4
Cc1cc(C(C)(C)C)oc1C(=O)N(CC(=O)NC1CCCC1)Cc1ccc(Cl)cc1	46.6	-5.7	-8.1	11.1	-4.1	-5.7
CCOC(=O)C(=CNc1cc(C)ccc1-n1cccc1)C(=O)OCC	74.3	4.1	-0.9	5.0	5.6	12.6
CN1CCC(C)(C(=O)Nc2ccc3c(c2)OCCO3)C1 (configuration not stated)	11.0	9.0	.	0.3	0.3	-5.8
CC(C)C(NC(=O)c1ccccc1F)C(=O)NCCc1ccccn1 (configuration not stated)	4.4	1.2	-4.3	-0.2	6.5	-2.5
Cc1ccccc1-n1ncc2c1CC(C)(C)CC2NC(=O)CN1CCCC1=O (configuration not stated)	3.7	0.9	19.5	-0.2	-11.4	-6.5
CCOC(=O)Cc1c(C)nc2cc(-c3ccc(C)cc3)[nH]n2c1=O	-13.4	-14.6	-7.1	-0.2	-18.9	-6.1
Cc1cccnc1NC(=O)CN1C(=O)COc2ccc(Cl)cc21	-7.3	-5.8	4.9	-0.6	.	-22.1
COc1ccc(NC2CCCN(C(=O)c3c(C)noc3C)C2)cc1 (configuration not stated)	-15.8	3.5	2.2	0.5	2.5	-26.8
COc1c(C)cc(C(=O)C2CCCN(C(=O)C3=C(C)OCCO3)C2)cc1C (configuration not stated)	-9.0	22.2	1.4	0.2	.	-7.9
Cc1ccc(C)c(NC(=O)CCC(=O)NNS(=O)(=O)c2ccc(Cl)cc2)c1	6.3	4.0	-0.3	1.7	0.2	-1.4
CCOc1ncccc1C(=O)OCCCC(=O)c1ccc(Br)cc1	-5.1	33.5	19.3	2.1	.	-2.3
O=C(CNC(=O)c1ccccc1Br)NCC(c1ccco1)N1CCCCC1 (configuration not stated)	-2.8	5.2	.	0.4	-7.2	-5.8
CN1CCN(C2CN(Cc3cn(Cc4ccc(C(F)(F)F)cc4)nn3)S(=O)(=O)C2)CC1 (configuration not stated)	.	14.1	.	-0.3	-21.8	.

# (listing goes on)
Compound	TRPML1 inh	Six1-Eya2 inh	TRPV1 potentiator	TRPML1 ag	CtBP-E1A blk	D2 potentiator
CCNC(=S)Nc1cc(OCC)c(NC(=O)c2cccs2)cc1OCC	1.0	-7.1	-8.1	0.4	-1.1	-20.0
CCC(C)Sc1cc(C(F)(F)F)c(C(=O)Nc2ccc(Cl)cc2)cn1 (configuration not stated)	0.9	5.9	-0.8	0.5	27.4	-1.8
N#CC(C(=S)Nc1ccccc1)c1nc2ccccc2[nH]1 (configuration not stated)	-0.9	-12.5	7.1	-1.0	.	-24.3
O=C(Nc1ccc(Cl)c(Cl)c1)OCc1cccnc1	20.5	1.7	-11.6	1.2	5.1	-30.5

# Limited to TRPML1 inh and Six1-Eya2 inh, for some of the entries so far:
mol	TRPML1 inh	Six1-Eya2 inh
O=C(Nc1ccc(Cl)c(Cl)c1)OCc1cccnc1	20.5	1.7
CCNC(=S)Nc1cc(OCC)c(NC(=O)c2cccs2)cc1OCC	1.0	-7.1
CCC(C)Sc1cc(C(F)(F)F)c(C(=O)Nc2ccc(Cl)cc2)cn1 (configuration not stated)	0.9	5.9

# Screening results (PubChem BioAssay)
